Menin-MLL FL inh: menin-MLL binding inhibition, fluorescein peptide; Fluorescence polarization, fluorescein-MLL peptide displacement from menin; FP activity change, % at 61.4 µM; 290,000 tested, under 10 active; inconclusive = falling polarisation curve, or a change in total fluorescence; inactive = total fluorescence flat and polarisation flat or rising; no compound was filed as active; the % refers to the polarisation; negative = inhibition;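 further: % of control where 0% means no effect; inhibitors lower the polarisation; unlabelled MLL peptide was the positive control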
ClpP mod: qHTS Assay for Activators of ClpP; ATP-dependent Clp protease proteolytic subunit (Bacillus subtilis (strain 168)), P80244; purified B. subtilis ClpP, FRET peptide cleavage, 20 min; Potency, µM (series often up to 57.5 µM), inactives show at the top dose activity change, negative = active; 1.9% of 340,000 active; active = well fitted falling curve with a large enough effect; inconclusive = small, poorly fitted or top-dose-only effect; inactive = no such curve, though single readings can be large or run the other way; further: potency means the concentration at half of the fitted maximal effect; the source files actives as falling curves though it sought activators and does not explain the sign; nearly all actives have a fitted effect of over 65% in size; many hits overshoot -100%
Target sequence (P80244 whole entry, looked up): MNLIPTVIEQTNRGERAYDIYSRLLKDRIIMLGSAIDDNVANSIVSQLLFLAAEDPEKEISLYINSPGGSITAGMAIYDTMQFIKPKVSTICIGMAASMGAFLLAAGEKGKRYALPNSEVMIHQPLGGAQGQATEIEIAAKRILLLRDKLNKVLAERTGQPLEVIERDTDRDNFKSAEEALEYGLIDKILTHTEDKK
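Purified B. subtilis ClpP, 10 microg/mL final in Tris/HCl pH8 with KCl, BSA, glycerol and Tween-20, cleaved an Abz/nitrotyrosine-quenched decapeptide. Fluorescence (ex 320, em 430) was read at 0 and 20 min at room temperature. Delta was normalized to 5.8 microM ADEP and DMSO/no-enzyme controls.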
gsp antag: gsp mutant antagonism; gsp-mutant cells, cAMP HTRF, 30 min; control for the full effect not named in the record; 0.4% of 340,000 active; Potency, µM (series often up to 76.9 µM), for inactives: top-dose activity change, negative = inhibition, actives largely listed as inhibitors; active = falling curve of any shape with a large fitted effect; inconclusive = falling curve, mostly with a smaller effect; inactive = flat or rising curve; cell line not stated here;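 further: intracellular cAMP measured with PDE inhibitor Ro 20-1724 present during compound exposure; potency means the concentration at half of the fitted maximal effect; on the % scale 0 is the no-effect control and ±100 the full control effect; nearly all actives have a fitted effect of over 65% in size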
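HTRF cAMP measurement after 30 min RT detection following 30 min, 37C compound treatment alongside […] (added as 300 uM solution) in G418-selected cells seeded at 2000/well and grown 16–24 h.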
TRPV1 PAM: potentiators of human vanilloid receptor 1 (TRPV1); Q8NER1; TRPV1-expressing cells, Fluo-8 calcium influx, capsaicin EC20 potentiation; host cell line not named in the record; control for the full effect not named in the record; potentiation, % at 8.33 µM; 0.02% of 320,000 active; AID 540277; active means potentiation above 80%; inconclusive means 30% to 80%; inactive means below 30%; further: 0% is about no effect
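Cells expressing TRPV1 were dye-loaded with Fluo-8 and read kinetically: 10 s baseline, 3 min after compound (agonist portion), then 2 min after EC20 capsaicin (allosteric enhancer portion). Calcium-bound dye fluorescence at 480/520 nm.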
Sfp inh: inhibitors of Bacillus subtilis Sfp phosphopantetheinyl transferase; 3.5% of 310,000 active; Biochemical Sfp PPTase activity, qHTS; Potency, µM, for inactives: max response, negative = inhibition, most hits filed as inhibitors; Q9F4F7; active means well fitted inhibition curve with a large enough effect; inconclusive means small, poorly fitted or top-dose-only effect, or another doubt; inactive means no such curve, though single readings can be large or run the other way;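 further: the enzyme is Sfp with the accession as filed and its product quenches rhodamine fluorescence; potency means the concentration at half of the fitted maximal effect; 0% = enzyme reaction without inhibitor and -100% = no enzyme wells; top concentration of the series not given in the record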
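Fluorescence-quenching assay with 15 nM Sfp, 5 uM rhodamine-CoA and 12.5 uM BHQ-2-labelled ybbR peptide in pH 7.6 Hepes/MgCl2 buffer. Enzyme was pre-incubated with compound for 15 min at room temperature. Rate was taken from the 30-min fluorescence change (525/598 nm).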
D2 PAM: positive allosteric modulators of human D2 dopamine receptor. P14416. DiscoveRx D2 beta-arrestin cells, luminescence, 90 min; 100% = 57 uM dopamine signal. potentiation, % (no concentration beside the values). 0.23% of 360,000 active; active = potentiation of 50% or more; inconclusive = 30% to 50%; inactive = 30% or less;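 further: compound concentration not given in the record; tested on top of an EC20 dose of dopamine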
Target sequence (P14416 whole entry, looked up): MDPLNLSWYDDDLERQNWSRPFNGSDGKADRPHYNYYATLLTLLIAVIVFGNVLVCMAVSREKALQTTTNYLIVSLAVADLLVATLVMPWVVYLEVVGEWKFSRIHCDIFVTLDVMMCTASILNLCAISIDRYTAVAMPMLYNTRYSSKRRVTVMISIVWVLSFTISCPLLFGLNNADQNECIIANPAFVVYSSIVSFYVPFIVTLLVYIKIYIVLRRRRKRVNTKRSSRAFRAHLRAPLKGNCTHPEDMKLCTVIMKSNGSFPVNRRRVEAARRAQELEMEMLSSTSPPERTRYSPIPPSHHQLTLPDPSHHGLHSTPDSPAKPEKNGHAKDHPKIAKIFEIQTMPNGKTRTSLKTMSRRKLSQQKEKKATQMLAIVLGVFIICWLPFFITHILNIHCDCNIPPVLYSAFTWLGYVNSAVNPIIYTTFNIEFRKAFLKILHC
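PathHunter beta-arrestin assay in DiscoveRx D2 cells. Compounds were added with an EC20 of dopamine (50 nM final) for 90 min at 37 deg C. Luminescence was read 1 h after detection reagent, with 57 uM dopamine as the EC100 control.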
gsp ag: agonists of gsp mutant (McCune-Albright syndrome) | Potency, µM (titrated, usually from 76.9 µM), for the others: at the top dose activation (cAMP increase), actives largely listed as activators | 0.13% of 340,000 active | gsp mutant cells, cAMP HTRF, 30 min; control for the full effect not named in the record; active = well fitted activation curve with a large enough effect; inconclusive = small, poorly fitted or top-dose-only effect, or another doubt; inactive = no such curve, though single readings can be large or run the other way; cell line not stated here;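 further: phosphodiesterase inhibitor Ro 20-1724 added with compounds to block cAMP breakdown; potency means the concentration at half of the fitted maximal effect; nearly all actives have a fitted effect of over 60% in size; about a fifth of the inactives were tested at one dose only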
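Cells in DMEM/10% FBS with G418 were pretreated with compounds in DMSO plus […] (300 uM stock) for 30 min at 37C. cAMP was measured by HTRF (cAMP-d2 plus anti-cAMP antibody-K) after 30 min at room temperature.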
* = called active by the depositor; ? = inconclusive; nt = not tested or not shown; & = joins results of further samples; [ ] = another dose, or the depositor's remark. Outcome played no part in choosing rows; any-hit rate near 5.1%.

SMILES	Menin-MLL FL inh	ClpP mod	gsp antag	TRPV1 PAM	Sfp inh	D2 PAM	gsp ag
CCOc1ccccc1/C=C(/NC(=O)c1ccccc1)C(=O)NCC(=O)O	1.9	-2.6%	9%	-1	9%	-5	12%[15.4 µM]
Cc1ccc(-c2nnc(Nc3ccc(CC(N)=O)cc3)c3ccccc23)cc1S(=O)(=O)NCC1CCCO1 (stereo not given)	6.3	nt	0%	-6	13%	-3	-3%[15.4 µM]
CSCCNC(C)=O	1.0	nt	nt	6	5%	nt	nt
CC12CCC(C(=O)N/N=C/c3ccc(O)cc3O)(OC1=O)C2(C)C (stereo not given)	-0.7	nt	-4%	-5	2%	-16	27%[15.4 µM]
Cc1ccc(CN2[C@@H](CC3CCCCC3)COCCS2(=O)=O)cc1	-1.4	-0.8%&1.4%	-4%	1	23%	-6	nt
Cc1ccc(/C=C/C(=O)O)cc1S(=O)(=O)Nc1ccccc1C(=O)O	1.7	nt	3%	0	-4%	-5	20%[15.4 µM]
CN(C)CCOC(=O)c1ccc(COc2ccccc2Br)o1	0.3	-1.3%	5%	7	10%	-10	-2%
N#Cc1nc(-c2ccc(OCc3ccc(Cl)cc3)cc2)oc1NCc1cccnc1	2.1	28µM*	-21%	17	-10%	6	-38%[inhibitor]
Cc1nc(-c2ccccn2)nc(SCC(=O)c2ccccc2)c1Cl	1.6	nt	?	14	4%	-11	19%[15.4 µM]
C#CCNC(=O)C1=C[C@H](c2coc3ccccc3c2=O)C[C@H](OCCCCO)O1	1.1	2.8%	12%	4	12%	-2	nt
CNC(=O)C1CCN(S(=O)(=O)c2c(C)noc2/C=C/c2cccc(OC)c2)CC1	-6.6	4.1%	-2%	-2	7%	-4	-68%[inhibitor]
CCn1cnc2cc(NC(=O)c3ccc(C)cc3)ccc21	-0.5	-2.7%	1%	-1	8%	-6	-38%[inhibitor]

Retrieved by structure from above:
SMILES	Menin-MLL FL inh	ClpP mod	gsp antag	TRPV1 PAM	Sfp inh	D2 PAM	gsp ag
Cc1nc(-c2ccccn2)nc(SCC(=O)c2ccccc2)c1Cl	1.6	nt	?	14	4%	-11	19%[15.4 µM]
Cc1ccc(-c2nnc(Nc3ccc(CC(N)=O)cc3)c3ccccc23)cc1S(=O)(=O)NCC1CCCO1 (stereo not given)	6.3	nt	0%	-6	13%	-3	-3%[15.4 µM]
N#Cc1nc(-c2ccc(OCc3ccc(Cl)cc3)cc2)oc1NCc1cccnc1	2.1	28µM*	-21%	17	-10%	6	-38%[inhibitor]

Returning to the listing, repeating the 6 entries before the break.
SMILES	Menin-MLL FL inh	ClpP mod	gsp antag	TRPV1 PAM	Sfp inh	D2 PAM	gsp ag
CN(C)CCOC(=O)c1ccc(COc2ccccc2Br)o1	0.3	-1.3%	5%	7	10%	-10	-2%
N#Cc1nc(-c2ccc(OCc3ccc(Cl)cc3)cc2)oc1NCc1cccnc1	2.1	28µM*	-21%	17	-10%	6	-38%[inhibitor]
Cc1nc(-c2ccccn2)nc(SCC(=O)c2ccccc2)c1Cl	1.6	nt	?	14	4%	-11	19%[15.4 µM]
C#CCNC(=O)C1=C[C@H](c2coc3ccccc3c2=O)C[C@H](OCCCCO)O1	1.1	2.8%	12%	4	12%	-2	nt
CNC(=O)C1CCN(S(=O)(=O)c2c(C)noc2/C=C/c2cccc(OC)c2)CC1	-6.6	4.1%	-2%	-2	7%	-4	-68%[inhibitor]
CCn1cnc2cc(NC(=O)c3ccc(C)cc3)ccc21	-0.5	-2.7%	1%	-1	8%	-6	-38%[inhibitor]
O=C(Nc1nnc(-c2ccc(F)cc2)s1)C1CCN(S(=O)(=O)c2ccc(Cl)cc2)CC1	3.2	?	10%	19	-3%	-15	47%[15.4 µM]
CCN(CC)C(=S)Oc1c(Cl)cccc1Cl	1.7	0.2%	-5%	-24	-7%	-15	0%
CCCC(=O)Nc1nnc(CC(=O)OCC)s1	0.9	-4.6%	-10%	17	22%	2	-12%
C#CCOCCOCCOCCNc1nc(N2CCN(C(=O)[C@H](CCCCN)n3cc([C@@H](N)C(C)CC)nn3)CC2)nc(N2CCN(C(=O)[C@H](CCCCN)n3cc([C@@H](N)CO)nn3)CC2)n1 (stereo not given in full)	-6.2	nt	nt	28	3%	nt	nt
Cc1cc(C)c(S(=O)(=O)n2c([N+](=O)[O-])cnc2C)c(C)c1	3.9	-0.4%	-1%	-11	0%	11	-5%
Cc1ccccc1OCC(=O)NC(Cc1c[nH]c2ccccc12)C(=O)O (stereo not given)	0.1	nt	-14%	-1	13%	0	-4%[15.4 µM]
Cc1c(C=O)c2ccccn2c1C(=O)c1cccc([N+](=O)[O-])c1	1.2	-1.7%	-2%	-3	-1%	-10	38%
O=C(O)c1nc(-c2ccccc2)n(-c2cccc(C(F)(F)F)c2)n1	1.6	-1.1%	6%	-9	6%	-5	10%[15.4 µM]
CC(C)OC(=O)C(C(=O)C(F)(F)F)c1cc(NS(=O)(=O)c2ccc3ccccc3c2)c2ccccc2c1O (stereo not given)	-1.3	?	-11%	-8	56µM*	?	-26%
CCN(C(=O)COC(=O)/C(C#N)=C/c1ccc(OC)cc1)C1CCS(=O)(=O)C1 (stereo not given)	nt	-3.8%	5%	-7	nt	2	18%
COC(=O)c1nnn(-c2nonc2N)c1CSc1nc2ccccc2o1	1.7	0.9%	-2%	1	9%	-6	-27%
O=C1C=C(c2cccc(CO)c2)C[C@@H](c2ccc(Cl)cc2)C1	nt	-0.1%	-5%	-6	nt	-3	nt
CCOc1ccc(CNC(=O)c2ccccc2NC(=O)C2=CSCCO2)cc1	nt	39%	-21%	24	-20%	-3	10%
Cc1ccc(CC2C(=O)N(c3ccc(F)cc3)C(=O)C2C)cc1 (stereo not given)	0.7	-3.4%	-8%	-30	-1%	-1	11%[15.4 µM]
O=C(CSc1ccccc1)NC1CCCCCC1	-2.6	-0.4%	2%	-8	12%	0	?
CCC(=O)NC(Nc1ncc(C)s1)(C(=O)OC)C(F)(F)F (stereo not given)	0.0	-2.4%	2%	-3	13%	10	9%
NCCCn1c(C(=O)c2cc(Cl)c(N)c(Cl)c2)c2ccc([N+](=O)[O-])cc2[n+]1[O-]	nt	-2.3%	2%	25	nt	-16	nt
CCOc1ccc2nc(NC(=O)c3ccc(OCC4CCCO4)cc3)sc2c1 (stereo not given)	6.6	nt	?	-3	?	-5	1%[15.4 µM]
COc1ccc(CNC(=O)c2csc(Cc3ccc(Cl)cc3)n2)cc1	3.4	-25%	1%	nt	1%	-10	-9%
CN(c1cccc(NC(=O)c2ccc(Cl)c(S(=O)(=O)Nc3ccccc3)c2)c1)S(C)(=O)=O	3.9	-1.7%	8.9µM*	-5	-7%	14	-12%
CCOC(=O)N1CCN(c2c(-c3ccccc3)c3cc(Cl)ccc3[nH]c2=O)CC1	0.2	-2.9%	4%	0	-8%	-24	-22%
c1ccc(COCCC2CO2)cc1 (stereo not given)	-9.5	nt	nt	0	21%	nt	nt
COc1ccc(CNC(N)=O)cc1OC	2.3	-1.2%	8%	3	8%	8	9%
O=C(C[C@@H]1C/C=C\CCC(=O)OC[C@@H]2CCCN2C1=O)N[C@@H](CO)Cc1ccccc1	nt	-0.2%	13%	nt	nt	-5	-18%
CCOC(=O)COc1c(Br)cc(C2NC(=O)NC(C)=C2C(C)=O)cc1OC (stereo not given)	1.5	-8.0%	2%	13	15%	-1	-17%
Cc1cccc(OCC(=O)N(C)CCc2ccccn2)c1	1.8	1.2%	5%	4	-12%	-42	-2%
COc1ccccc1C(=O)NCCC(=O)NCc1ccncc1	nt	-1.5%	10%	-19	nt	-10	15%
CC1(OC(=O)c2cccs2)C(=O)C=C2C=C3CCCN3C=C2C1=O (stereo not given)	-17[11.7 µM]	0.5%	-1%	?	-4%	2	-6%
O=C(Nc1ccc(Cl)cc1)N1CCSc2ccccc21	2.7	-0.6%	-12%	-5	-8%	6	-35%[inhibitor]
Cn1cc([N+](=O)[O-])c(C(=O)Nc2sc3c(c2C#N)CCC3)n1	nt	1.2%	-4%	-2	12%	-7	14%
CC1CCCCC1NC(=O)Cn1cnc2ccccc2c1=O (stereo not given)	5.2	-0.7%	-1%	-1	2%	-6	?
COc1cc2ccccc2cc1C(=O)Nc1ccccc1C	-3.0	-2.2%	?	5	-12%	-4	-6%[15.4 µM]
COc1ccc(CCN(C(=O)COc2ccccc2)c2nc(-c3ccccc3)cs2)cc1OC	5.1	1.0%	0%	6	-5%	-9	?
N#Cc1ccccc1NC(=O)CN1CCN(Cc2ccccc2)CC1	7.5	-0.7%	35µM*	3	13%	-9	0%[15.4 µM]
O=C(N/N=C/C(Br)=C/c1ccccc1)c1cccnc1	1.8	nt	-6%	-13	2%	-11	?
N=C1C(c2nc3ccccc3s2)=C(O)CN1c1ccccc1	-4.3	nt	7%	2	26%	-4	9%
CC1=C(C(=O)NCc2ccc(Cl)cc2)C2(CCC(C)CC2)OC1=O (stereo not given)	-2.1	-0.8%&-2.4%	2%	-9	20%	-4	10%
Cc1cc(=O)oc2c3c(cc(OCC(=O)NCCN4CCOCC4)c12)OC(C)(C)CC3	2.9	4.5%	5%	-5	24%	-63	nt
Cn1cc(CNCc2ccccc2OCC(O)CN2CCc3ccccc3C2)cn1 (stereo not given)	-13	nt	-22%	8	9%	-4	-9%[15.4 µM]

Source: PubChem
